Assay outcomes deposited in PubChem BioAssay by several laboratories.
PrP 5UTR inh – inhibition of PrP 5' UTR reporter expression; inhibition, % (test concentration not listed); AID 488862, 2010; 340,000 compounds, 0.35% hits; cell-based PrP 5' UTR mRNA reporter, plate reader;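 active = every replicate at 50% or more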;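 note: 0 = median of the neutral control wells; tested in H4 reporter cells; numbers are from one replicate; inactives centre near -14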
RN4220 kill – growth inhibition of S. aureus RN4220, primary screen, OD600. inhibition, % (concentration not given with the values). 16 h. 330,000 compounds, 0.33% hits. AID 1259311, 2017;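 active = z-score of -3 or lower and OD600 up to 0.18 on both plates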;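 note: plate controls were untreated cells for no effect and reference antibiotic for full effect; stock transfer was 100 nL into about 80 µL; one replicate is shown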
Mtb hypoxia inh – PubChem AID 1159583 | 300,000 compounds, 0.1% hits | fluorescence inhibition, % (test concentration not listed) | M. tuberculosis hypoxia-regulated fluorescent reporter, fluorescence;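 active = 35 to 45% if threefold the growth effect, above 45% if 1.5-fold the growth effect; inactive = the rest, general growth blockers included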;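 note: wells of about 50 µL received 100 nL stock; 0% = vehicle wells and 100% = reference inhibitor wells; whole bacteria with a GFP reporter of the hypoxia response; strong numbers were not always called active; many hits fall short of the cut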
ugtP null kill – growth inhibition of ugtP-null S. aureus, primary screen, RN4220 ugtP deletion, OD600 | 16 h; some inactives read as strong as hits | growth inhibition, % (test concentration not listed) | 330,000 compounds, 0.54% hits | AID 1259309, 2017;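 active = z-score under -3 and OD600 up to 0.15 on both plates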;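 note: plate controls were untreated wells for no effect and antibiotic for full effect; wells of about 80 µL received 100 nL stock; the first replicate is given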
BJeLR viability – MLPCN primary cell-based screen for lethality selective to Ras in HRASV12 cells. BJeLR (HRASV12) viability, CellTiter-Glo ATP luminescence, 48 h; reference of the scale not given here. inhibition, % (concentration not given with the values). 300,000 compounds, 0.17% hits;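 active = replicate mean above 50%; inconclusive = above 50% but judged a plate artefact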;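 note: 50 nL library stock added to about 25 µL; numbers are from one replicate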
Autofluor counter – flagged as autofluorescent in microsphere protease counterscreen. compound autofluorescence counterscreen, microsphere flow cytometry; stronger effect = higher value. fluorescence intensity (concentration not given with the values). 360,000 compounds, 3.1% hits;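 active = at least 3 SD above the mean of all compounds, about 16000 in these data; inconclusive = too few beads counted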;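 note: 100 nL of 1 mM stock went into each well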
Mtb hypoxia inh growth – second read-out of Mtb hypoxia inh, no call of its own (marks repeat the call); growth inhibition, %; measured here: M. tuberculosis growth (absorbance);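 0% = vehicle and 100% = reference antibiotic; read after six days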
* hit, by the source's call; ? = inconclusive; nt = no result given; & = joins results of further samples.

SMILES	PrP 5UTR inh	RN4220 kill	Mtb hypoxia inh	Mtb hypoxia inh growth	ugtP null kill	BJeLR viability	Autofluor counter
CN(CC1CCCN(CCc2ccc(Cl)cc2)C1)C(=O)CC(F)(F)F (stereo not drawn)	-14	3.2	12	17	14	-2	3776
CCOc1ccc2nc(N3CCCC(C(=O)NCCCN4C(C)CCCC4C)C3)sc2c1 (stereo not drawn)	-34	2.4	-1	12	3	29	6206
Cc1cccc(C)c1NC(=O)CNC(=O)C(C)N(C)CC(=O)Nc1ccc(F)cc1 (stereo not drawn)	-19	0.9	-1	-1	2	nt	?
Cc1ccc(S(=O)(=O)N2CCC(C(=O)NNC(=O)c3ccccc3O)CC2)cc1C	-27	3.8	-3	-6	8	-3	5117
CCc1ccc(-c2cc(C(=O)N/N=C/c3ccccn3)[nH]n2)cc1	-11	nt	nt	nt	nt	6	4896
O=C(CSc1ncc(-c2ccc(F)cc2)n1Cc1ccco1)Nc1ccc2c(c1)OCO2	-61	-2.1	6	14	17	-11	4473
COc1cc(C2C(C(=O)/C=C/c3ccccc3)=C(O)C(=O)N2c2ccccn2)ccc1O (stereo not drawn)	-31	3.2	4	-1	2	-5	3121
CCN(CC)CCN1c2ccccc2Sc2ccccc21	2	-0.6	-2	-1	4	6	6054
CC(=O)Oc1cccc(N2C(=O)C3CC=CCC3C2=O)c1 (stereo not drawn)	-6	1.3	nt	nt	5	-1	3852
O=C(Nc1ccccc1)C1=CC(c2ccc(Br)cc2)CC(OCc2ccc(CO)cc2)O1 (stereo not drawn)	nt	-3.6&7.7	0&0	5&-5	1&10	nt	nt
COc1ccc(C=NN=C(N)c2nonc2N)cc1OC	nt	5.4	-5	2	-5	nt	nt
Cc1ccc(NN=C/C=C/c2ccco2)cc1	nt	-7.3	2	2	10	nt	nt
CN1C(=O)C2(OCC(CO)([N+](=O)[O-])CO2)c2ccccc21 (stereo not drawn)	-4	-5.5	-8	-6	-8	0	2916
O=C(O)C1CCN(c2ccc(Cl)nn2)CC1	-19	1.0	-11	6	2	1	2492
CCOC(=O)C1C(=NO)CC(C)(O)C(C(=O)OCC)C1c1ccc(OC)c(OC)c1 (stereo not drawn)	nt	6.5	8	0	1	nt	nt
Cc1ccc(-n2c(C)cc(/C=N\NC(=O)CC(=O)NC(C)C)c2C)cc1	-4	nt	nt	nt	nt	-9	3493
Cc1cc(C(=O)Nc2ccccc2C(=O)O)ccc1NC(=O)COc1cccc(C)c1C	-10	10	11	2	10	2	4514
Cc1cccc(C=NNC(=O)c2ccc(NC(=O)c3ccccc3C)cc2)n1	nt	-2.4	11	3	3	nt	nt
CCOc1cccc(CN2CCCC(C(=O)c3cccc(C(F)(F)F)c3)C2)c1O (stereo not drawn)	-8	-6.1	7	1	4	-4	3396
COc1ccc(NC(=O)CSCC(=O)NCc2cccc(C(F)(F)F)c2)cc1	nt	0.4	16	8	1	nt	nt
O=C(c1cnn2c(C(F)F)cc(-c3ccccc3)nc12)N1CCN(Cc2ccc3c(c2)OCO3)CC1	-22	-1.0	0	-13	1	-2	5998
CCN1CCN(C(c2cccnc2)c2cc(Cl)c3cccnc3c2O)CC1 (stereo not drawn)	-15	9.8	12	13	1	-11	4278
c1cncc(-c2cnc3ccccc3c2)c1	-41	11	11	-1	4	nt	3789
Cc1ccc(CSc2nc3c(c(N(C)C)n2)CCCC3)cc1	-20	5.0	17	14	-11	-3	2943
CCn1c(SCC(=O)Nc2ccccc2C(=O)OC)nnc1-c1ccc(N)cc1	-23	4.5	6	5	1	8	23878*
CC(C)(C)C(=O)N1CCN(c2ccc(Cl)cc2[N+](=O)[O-])CC1	-18	2.9	10	8	17	-5	2117
CCn1c(C)c(C(C)=O)c(N2CCC(C(N)=O)CC2)nc1=S	-20	3.9	-3	2	21	4	7809
Cc1occc1C(=O)N/N=C/C=C/c1ccccc1	-90	nt	nt	nt	nt	-7	4251
O=C(CSc1nc2ccccc2c(=O)n1CC1CCCO1)NCC1CCCO1 (stereo not drawn)	-12	8.0	7	10	-11	-8	17453*
COc1ccc(CNC(=O)c2cc3cc(OC)ccc3oc2=O)cc1	-25	5.0	10	1	-11	0	3965
CC(C)n1c(N2CCN(CC(=O)NCc3cccs3)CC2)nc2ccccc21	-12	4.3	3	8	1	0	3729
N=C1C(c2ccccc2)=C(O)CN1Cc1ccco1	-27	4.2	5	11	5	-7	9316
CCN(CC)c1ccc(NC(=O)CSc2nc3ccccc3c(=O)n2-c2cc(S(=O)(=O)N(C)C)ccc2C)cc1	-13	-3.6	-1	-2	11	-2	1926
CCC(C)(C)NC(=O)CN(C(=O)CCC(=O)Nc1nccs1)c1ccc(C)cc1	-16	5.2	12	5	7	-7	3581
Clc1cccc2sc(N3CCCCC3)nc12	-51	27	-3	7	-11	-14	9078
COc1ccc(S(=O)(=O)N2CCOCC2)cc1NC(=O)c1c(-c2ccccc2)noc1C	-15	1.0	-1	6	-2	nt	5047
CC(C)CC(=O)NC(=S)Nc1ccccn1	-13	3.9	18	5	17	-6	3738
Cc1ccc(C(=O)C(=S)N2CCOCC2)cc1	-26	1.6	2	12	0	-4	6330
COc1ccc(NC(=O)/C=C/c2ccc(Br)o2)cn1	-11	nt	nt	nt	nt	10	3892
O=C(c1cccnc1)N1CCC(Oc2ccc(C(=O)N3CCCC(O)C3)cc2)CC1 (stereo not drawn)	1	-4.0	-9	0	-4	-12	4925
COc1ccc(C(=O)Nn2c(C)nc3ccccc3c2=O)cc1	-40	0.7	15	2	0	-1	4471
C/C(C=Nn1c(-c2ccco2)n[nH]c1=S)=C/c1ccccc1	nt	26	16	8	-18	nt	nt
Clc1ccccc1COc1ccc(C=Nn2cnnc2)cc1	nt	10	9	-6	3	nt	nt
COc1ccc(-n2cc3ccc([N+](=O)[O-])cc3n2)cc1	-26	4.2	14	9	0	3	3455
O=C(CCCCCCCC(=O)NNC(=O)Nc1ccccc1)NNC(=O)Nc1ccccc1	-6	8.6	11	10	9	-12	2085

An excerpt from the list above, as a working copy:
SMILES	PrP 5UTR inh	RN4220 kill	Mtb hypoxia inh	Mtb hypoxia inh growth	ugtP null kill	BJeLR viability	Autofluor counter
CN(CC1CCCN(CCc2ccc(Cl)cc2)C1)C(=O)CC(F)(F)F (stereo not drawn)	-14	3.2	12	17	14	-2	3776
CCOc1ccc2nc(N3CCCC(C(=O)NCCCN4C(C)CCCC4C)C3)sc2c1 (stereo not drawn)	-34	2.4	-1	12	3	29	6206
Cc1cccc(C)c1NC(=O)CNC(=O)C(C)N(C)CC(=O)Nc1ccc(F)cc1 (stereo not drawn)	-19	0.9	-1	-1	2	nt	?

(more compounds)
SMILES	PrP 5UTR inh	RN4220 kill	Mtb hypoxia inh	Mtb hypoxia inh growth	ugtP null kill	BJeLR viability	Autofluor counter
Nc1nnc(-c2cc3c(ccc4ccccc43)oc2=O)s1	nt	11	-6	0	-1	nt	nt
Cn1c(=O)[nH]c(=O)c2c1nc(N1CCCCC1)n2CCSc1nc2ccccc2o1	-15	-12	-1	7	-9	13	7341
O=C(NCc1ccccc1)Nc1cccn(Cc2cccc(F)c2)c1=O	-32	-0.5	1	-4	8	7	2038
Cc1nnc(SCC(=O)N/N=C/c2ccc(-c3ccc(C)c(Cl)c3)o2)s1	-17	nt	nt	nt	nt	-10	2131
Cc1ccc(N2CC(C(=O)Nc3ccc(S(=O)(=O)Nc4nccc(C)n4)cc3)CC2=O)cc1 (stereo not drawn)	-29	2.5	13	21	1	-6	3315
CCC(=NO)c1c(O)c2c(n(-c3ccccc3)c1=O)CCCC2	nt	1.5	0	2	4	nt	nt
CN(C(=O)CSc1nncn1-c1ccccc1)C1CCS(=O)(=O)C1 (stereo not drawn)	-6	2.0	3	2	3	-6	?
COc1ccc(C2/C(=C(/O)c3ccccc3)C(=O)C(=O)N2c2ccccn2)cc1 (stereo not drawn)	-11	4.9	-4	15	0	-3	3161
COc1ccc(S(=O)(=O)Nc2ccc(S(=O)(=O)N3CCCCC3)cc2)cc1C	-18	4.8	2	0	10	12	11830
CCOC(=O)c1c(C)[nH]c(C(=O)OCC(=O)N2CCN(S(=O)(=O)c3ccccc3)CC2)c1C	-2	4.4	13	7	8	-3	3258
Cc1cc(F)ccc1NC(=O)CCc1c(C)nn(-c2ccc(N3CCCCC3)nn2)c1C	-15	-0.7	11	6	5	15	2886
CCOC(=O)c1oc2ccccc2c1COC(=O)CNC(=O)c1ccc(C)cc1	-13	2.0	11	1	-1	-15	4942
Cc1ccc(C(=O)OCC(=O)c2ccc(Br)cc2)cc1S(=O)(=O)N1CCOCC1	nt	10	9	7	1	nt	5417
C=CCc1c(C)c(C#N)c2nc3ccccc3n2c1NCCN(C)C	-7	-12	13	8	3	-19	3231
CCCn1c(SCC(=O)NC2CCCCC2)nnc1-c1ccco1	-17	2.6	5	13	17	-14	6184
CCOC(=O)C1CN(C(C)(C)C)C(=O)C1=O (stereo not drawn)	-9	7.1	5	10	5	-6	1949
CCN(c1ccccc1)S(=O)(=O)c1ccc(Cl)c(NC(=O)CNC(C)c2ccccc2)c1 (stereo not drawn)	-24	5.6	-6	-5	-3	nt	6535
Cn1cc(CN(Cc2ccccn2)C[C@@H]2CCC(=O)N2)c(-c2ccccc2F)n1	-28	1.2	14	-2	1	9	2654
Cc1cccc(C)c1NC(=O)/C(C#N)=C/c1cccs1	-8	2.8	nt	nt	5	-2	3378
Cc1cn[nH]c1	-5	4.4	-5	-2	-1	nt	5954
Nc1nc(SCC(=O)N2N=C(c3ccc(Cl)cc3)CC2c2ccco2)n[nH]1 (stereo not drawn)	-20	1.8	0	2	4	-4	5030
Cc1ccc(S(=O)(=O)Oc2ccc(/C=N/N=C3/NC(=O)C(CC(=O)O)S3)cc2)cc1[N+](=O)[O-] (stereo not drawn)	-23	nt	nt	nt	nt	-5	6217
COc1cccc(CC(=O)OCC(=O)NC(C)c2ccc(F)cc2)c1 (stereo not drawn)	-5	-4.3	-11	3	-7	nt	3941
COc1ccc(CCNC(=O)C(=O)NCCCN2CCOCC2)cc1	2	3.6	12	9	3	nt	4266
CC(C)(C)C(=O)Nc1ccccc1C(=O)N1CCCC1	-17	0.2	nt	nt	6	2	3805
FC(F)(F)Oc1ccc(NC(=S)Nc2ccc(OC(F)(F)F)cc2)cc1	-21	99*	13	4	92*	-10	?
Cc1ccc(NC(=O)CCNC(=O)Cn2cnc3ccccc3c2=O)cc1F	-19	-0.9	5	1	1	2	3927
COc1cccc(C=NNc2c(Cl)cncc2Cl)c1O	nt	4.5	-1	10	0	nt	nt
Fc1ccc2c(c1)nnn2C1CCN(Cc2ccccc2)CC1	-3	2.2	3	12	-3	1	4205
CC(=O)NC(NC(=S)Nc1ccc(N=Nc2ccccc2)cc1)C(Cl)(Cl)Cl (stereo not drawn)	-37	0.8	7	6	-2	-9	3292
NS(=O)(=O)c1cccc(NC(=O)CSc2ccccn2)c1	-27	1.8	2	7	-7	-7	3284
Cc1ccc(S(=O)(=O)NCCSCc2ccco2)cc1	-19	7.2	14	0	2	2	3569
Cc1cc(Cl)c(S(=O)(=O)N2CCN(c3ccccn3)CC2)cc1OCC(N)=O	-9	5.3	15	21	1	10	4582
COc1ccc(N(C(C)C(=O)N/N=C/c2ccc(OC)c(OC)c2)S(C)(=O)=O)cc1 (stereo not drawn)	-16	nt	nt	nt	nt	0	2423
Cc1ccc(C(C(=O)NC(C)(C)C)N(CC2CCCO2)C(=O)Cn2nnc(-c3ccc(C)o3)n2)cc1 (stereo not drawn)	3	5.8	2	6	12	10	16426*
CNS(=O)(=O)c1ccc(NC(=O)c2ccccn2)cc1	-51	5.6	5	-7	13	4	1974
Nc1c(C(=O)NCc2ccccc2)nnn1Cc1ccccc1	-1	2.3	7	3	3	0	4719
O=C(COc1ccc(C(=O)c2ccccc2)cc1)NCC1CCCCC1	-62	-4.9	6	5	13	3	2979
O=C(NN=Cc1cccnc1)c1ccccc1NS(=O)(=O)c1cccs1	nt	13	14	15	3	nt	nt

Random draw from the library. About 3.9% of those tested had a hit in this group.
